Source: PubChem BioAssay
eIF4H inh = inhibitors of RNA binding by human eIF4H; hit rate 0.94% among 290,000; Q15056; eIF4H fluorescence polarization binding assay; inhibition, % at 35 µM;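 active = 50% or more with normal probe brightness, or confirmed in later tests; inconclusive = above 50% with abnormal brightness, or retests that disagree; inactive = below 50% or failed in later tests; about a fifth of its hits are not listed in these tables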;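 note: calls also rest on retests at 20 µM and on dose response follow-up; 0% = protein and probe with vehicle and 100% = probe without protein; strong numbers were not always called active; many hits fall short of the cut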
UUG fidelity = yeast start codon fidelity modulation. hit rate 0.13% among 350,000. activity score, % at 18.7 µM. S. cerevisiae UUG-firefly luciferase reporter, luminescence/redox ratio;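 active = replicate mean at a twofold rise or more, about +100% in these data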;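 note: firefly luciferase made from a UUG start codon reports start codon fidelity; reporter light over untreated wells divided by growth signal over untreated wells; some hits fall short of that in this replicate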
Rce1 inh = yeast Ras-converting enzyme inhibition; Q03530; yeast membranes, quenched prenylated peptide cleavage fluorescence; hit rate 0.27% among 290,000; AID 2563; calls only;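 active = fall in fluorescence gain of 50% or more versus controls, with final raw signal at or below 3038400; inconclusive = same 50% fall but final raw signal above 3038400; inactive = fall in fluorescence gain under 50%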;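 note: plate controls were neutral control wells for no effect and wells lacking membranes for full effect; tested at 10 µM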
PABP polyA inh = blocks human PABP binding to poly(A) RNA; fluorescence polarization; inhibition, % at 35 µM; hit rate 1% among 290,000;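 active = 50% or more with normal probe brightness, or confirmed in later tests; inconclusive = above 50% with abnormal brightness, or retests that disagree; inactive = below 50% or failed in later tests; about a fifth of its hits are not listed in these tables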;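 note: calls also rest on retests at 20 µM and on dose response follow-up; controls were probe without protein and protein plus probe with vehicle; some compounds called inactive have numbers as strong as hits; many hits fall short of the cut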
Target sequence (P11940 whole entry, looked up): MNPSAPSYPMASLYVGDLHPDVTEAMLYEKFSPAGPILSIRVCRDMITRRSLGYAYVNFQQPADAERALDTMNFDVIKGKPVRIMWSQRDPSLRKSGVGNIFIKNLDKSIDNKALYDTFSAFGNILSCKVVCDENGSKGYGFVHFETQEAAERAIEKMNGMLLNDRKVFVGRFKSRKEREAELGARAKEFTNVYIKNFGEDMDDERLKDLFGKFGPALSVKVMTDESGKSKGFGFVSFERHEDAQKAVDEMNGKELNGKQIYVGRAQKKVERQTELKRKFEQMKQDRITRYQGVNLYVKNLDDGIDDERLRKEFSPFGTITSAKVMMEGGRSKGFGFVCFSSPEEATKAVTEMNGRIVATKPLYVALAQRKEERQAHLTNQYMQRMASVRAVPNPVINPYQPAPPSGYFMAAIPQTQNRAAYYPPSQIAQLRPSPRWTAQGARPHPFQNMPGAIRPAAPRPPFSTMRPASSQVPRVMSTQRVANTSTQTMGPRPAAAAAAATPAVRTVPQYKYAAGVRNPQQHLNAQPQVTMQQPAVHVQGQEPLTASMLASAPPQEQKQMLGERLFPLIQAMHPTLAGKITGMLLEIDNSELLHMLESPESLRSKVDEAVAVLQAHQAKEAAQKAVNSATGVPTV
CSC inhib = blocks cancer stem cells; cancer stem cell-like cells viability, luminescence; inhibition, % at 7.5 µM; hit rate 1.1% among 300,000; AID 2717;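 active = mean at 75% or more and at least half the replicates too; inconclusive = mean and replicates disagree; tested in HMLE shEcad cells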;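 note: 0% = median of negative and 100% = median of positive control wells; the first replicate is given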
MT1-MMP act inh = MT1-MMP (human) activation inhibition; AID 651647; HT1080 RFP-PRO-GFP cells, GFP/RFP ratio fluorescence, overnight; percent of plate control window, DMSO zero; GFP/RFP ratio change, % at 20 µM; P50281; hit rate 0.061% among 360,000;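 active = GFP/RFP ratio change of at least 30% with cell ATP level not reduced by more than half and red fluorescence within 50% of control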; note: strong numbers were not always called active
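Assay system: HT1080 RFP-PRO-GFP cells | Dosing: 20 µM single dose, 1% DMSO | Incubation: Cells overnight before dosing, compound overnight, 37 °C, 5% CO2 | Evaluation: GFP/RFP fluorescence ratio | Control set: DMSO-only wells and HT1080 RFP-L50D-GFP cell wells as references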
HIV Env fusion = HIV envelope-mediated fusion inhibition. hit rate 1.1% among 360,000. inhibition, % at 12.3 µM. AID 651610. HeLa-JRFL Env/CEM21 cell fusion, luciferase;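 active = mean replicate inhibition score of at least 50 and every replicate individually at or above 50; inconclusive = only one of the two criteria met; inactive = mean below 50 and not all replicates reaching 50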;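 note: 0% = plate neutral controls and 100% = maraviroc near 300 nM; one replicate is shown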
eIF4H inh retest = further read-out of eIF4H inh, marked with its call; inhibition, %; compound at 20 µM; confirmation average;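 mean of two retest wells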
PABP polyA inh retest = second read-out of PABP polyA inh, no call of its own (marks repeat the call); inhibition, %; compound at 20 µM; confirmation repeats;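 mean of two retest wells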
MT1-MMP act inh RFP = second read-out of MT1-MMP act inh, no call of its own (marks repeat the call); RFP signal change, %; measured here: RFP expression control read;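 0 = vehicle wells; hits needed this value within 50% of zero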
* marks the source's active call; other numbers are inactive results; i = inactive; ? = inconclusive; . = not tested or not shown; & = joins results of further samples.

Start of the data: the first 4 records (preview)
SMILES	eIF4H inh	UUG fidelity	Rce1 inh	PABP polyA inh	CSC inhib	MT1-MMP act inh	MT1-MMP act inh RFP	HIV Env fusion	others
O=C(Nc1nnc(C2CC2)s1)C1CCCCC1	.	-26	.	.	-4	-1	0	.
O=C1CSC(c2cccc(F)c2)N1c1c(F)cccc1F (stereo not drawn)	-11	-8	i	13	-3	4	2	-7
C/C(=N/N=C1/NC(=O)CC(C(=O)Nc2ccccc2)S1)c1cccs1 (stereo not drawn)	-2	.	i	4	-3	4	3	-12
COC(=O)CN1C(=O)COc2ccc(S(=O)(=O)N3CCCCCC3)cc21	-4	-12	i	0	-11	0	0	6

The whole of this part, repeating the preview:
SMILES	eIF4H inh	UUG fidelity	Rce1 inh	PABP polyA inh	CSC inhib	MT1-MMP act inh	MT1-MMP act inh RFP	HIV Env fusion	others
O=C(Nc1nnc(C2CC2)s1)C1CCCCC1	.	-26	.	.	-4	-1	0	.
O=C1CSC(c2cccc(F)c2)N1c1c(F)cccc1F (stereo not drawn)	-11	-8	i	13	-3	4	2	-7
C/C(=N/N=C1/NC(=O)CC(C(=O)Nc2ccccc2)S1)c1cccs1 (stereo not drawn)	-2	.	i	4	-3	4	3	-12
COC(=O)CN1C(=O)COc2ccc(S(=O)(=O)N3CCCCCC3)cc21	-4	-12	i	0	-11	0	0	6
Cn1c(-c2c(N)n(CCc3ccccc3)c3nc4ccccc4nc23)nc2ccccc21	-1	-6	i	25	40	-34	-6	.
COc1ccccc1N1CCN(Cc2cc3c(cc2Br)OCCO3)CC1	-2	-13	i	-8	.	0	3	8
CC(=O)C1=C(C)NC(SCC(N)=O)=C(C#N)C1c1sccc1C (stereo not drawn)	2	-5	i	-2	.	4	-1	.
COCc1cc(C)nc2sc(C(=O)OC(C)C)c(N)c12	-6	-10	i	-8	0	0	3	.
NS(=O)(=O)c1cccc(NC(=O)CSc2nnc(NC3CC3)s2)c1	.	-17	.	.	.	4	-1	-63
Cc1ccc(C)n1-c1sccc1C(=O)O	107	-13	i	119	.	-6	5	.	eIF4H inh retest=-3;PABP polyA inh retest=8
CCOC(=O)N1CCC(Nc2c(N3CCN(c4cccc(C(F)(F)F)c4)CC3)c(=O)c2=O)CC1	-7	-19	i	-20	.	4	1	14
COC(=O)c1[nH]c2cc(OC)ccc2c1NC(=O)c1ccc2c(c1)OCO2	-12	.	i	0	-4	0	-3	17
CCn1c(C)cc2c(c1=O)C(c1ccccc1)C(C(=O)OC)=C(N)O2 (stereo not drawn)	3	12	i	-4	1	-7	5	-1
CN(CCNC(=O)c1ccc(CS(=O)(=O)c2ccc(Br)cc2)o1)CCc1ccccc1	-1	13	i	4	-9	-8	-3	8
O=C(NC1CCCCC1)c1cccc(NC(=O)c2ccccc2Cl)c1	.	-20	.	.	.	-5	-10	21
Cc1c(CC(=O)O)c(=O)oc2c(C)c(OCc3ccccc3Br)ccc12	23	-14	i	30	.	-3	-4	1
CCS(=O)(=O)N1CCN(Cc2nc3ccccc3c(=O)[nH]2)CC1	2	-17	i	4	0	-1	2	-36
CCOc1ccc(-c2c(C(=O)N/N=C/c3cccc(Br)c3)nnn2-c2nonc2N)cc1	0	-5	i	-4	-1	0	0	-5
CC1=CSC2=NC(=O)/C(=C\c3cccn3-c3ccccc3)C(=N)N12	35	-4	i	9	-11	-3	-6	-40
CCC(=O)NC1CCN(C(=S)NC)CC1	3	.	i	5	.	-2	1	-11
CCN(CC(=O)NCc1cccs1)C(=O)c1cc(S(=O)(=O)NCc2ccccc2)ccc1C	.	-17	i	.	.	-7	-6	6
Cc1cc(C)cc(C(=O)NC(=S)Nc2ccc3[nH]c(=O)[nH]c3c2)c1	4	-8	i	1	1	0	2	-20
CCOC(=O)C1=C(COC(=O)c2c(OC)cccc2OC)NC(=O)NC1C (stereo not drawn)	.	-4	i	.	-1	3	-1	9
Cc1cccc(C(=O)Nc2ccc(O)c3c(=O)cc(-c4ccccc4Cl)oc23)c1	6	-11	i	2	8	-4	-2	.
O=C(NCCc1ccccc1)C(=O)NCC1CCCO1 (stereo not drawn)	-9	-21	i	-5	-15	3	5	.
CCCOc1ccc(N2C(=O)CC(N(Cc3ccco3)C(=O)CCC(=O)O)C2=O)cc1 (stereo not drawn)	4	11	i	-2	-11	0	0	21
O=C(CN1CCOCC1)N1CCCc2c1c(=O)oc1ccc(OCc3ccccc3)cc21	-2	-14	i	8	.	3	-3	-41
CCCc1cc(C(=O)N2CCCC(Cc3cccc(Cl)c3)(C(=O)OCC)C2)n(C)n1 (stereo not drawn)	5	-9	i	-5	.	-3	-7	0
NCCCCCc1cn([C@@H](CCC(=O)O)C(=O)NCCCCCCCCCCC(=O)N2CCNCC2)nn1	.	-3	.	.	-14	0	1	-8
O=C(CN1C(=O)/C(=C/c2c(F)cccc2Cl)Oc2ccccc21)NCc1ccco1	33	.	i	20	43	.	.	.
Cc1ccc(OCCOc2cccc3ccc(C)nc23)c([N+](=O)[O-])c1	12	-14	i	19	7	3	2	7
O=C(C(=O)N1CCCCC1)c1c(-c2ccccc2)[nH]c2ccccc12	10	-10	i	-2	-6	2	2	18
Cc1ccc(N/C=C2\C(=O)C3(C)CCC2C3(C)C)cc1C (stereo not drawn)	-12	.	i	-8	-9	0	5	-8
Cc1ccc(C(=O)N/N=C/c2cc(C)n(-c3ccc(Br)cc3)c2C)cc1[N+](=O)[O-]	-5	-10	i	-3	5	1	-5	.
COc1ccccc1NNC(=O)C(O)(c1ccccc1)c1ccccc1	0	.	i	-4	-5	6	4	-4
CC1(C)CC(=O)C2=C(C1)NC1=C(C(=O)c3ccccc31)C2c1cccnc1 (stereo not drawn)	0	.	i	5	-25	1	3	-1

Reprinted at random: four entries already listed, in no set order.
SMILES	eIF4H inh	UUG fidelity	Rce1 inh	PABP polyA inh	CSC inhib	MT1-MMP act inh	MT1-MMP act inh RFP	HIV Env fusion	others
O=C(CN1C(=O)/C(=C/c2c(F)cccc2Cl)Oc2ccccc21)NCc1ccco1	33	.	i	20	43	.	.	.
O=C(NCCc1ccccc1)C(=O)NCC1CCCO1 (stereo not drawn)	-9	-21	i	-5	-15	3	5	.
O=C(C(=O)N1CCCCC1)c1c(-c2ccccc2)[nH]c2ccccc12	10	-10	i	-2	-6	2	2	18
COc1ccccc1NNC(=O)C(O)(c1ccccc1)c1ccccc1	0	.	i	-4	-5	6	4	-4

(cont.)
SMILES	eIF4H inh	UUG fidelity	Rce1 inh	PABP polyA inh	CSC inhib	MT1-MMP act inh	MT1-MMP act inh RFP	HIV Env fusion	others
O=C(COc1cccc(Br)c1)NN=C1c2ccccc2-c2ccccc21	-4	-21	i	-5	9	3	4	-37
CC(NC(=O)C1CCCN1C(=O)OCc1ccccc1)c1ccccc1 (stereo not drawn)	-2	.	i	-7	6	0	4	4
CCN(CC)CCNC(=O)C(=O)NCC1OCCN1C(=O)c1ccc2c(c1)OCO2 (stereo not drawn)	15	.	i	-14	-3	.	.	.
O=C(CC12CC3CC(CC(C3)C1)C2)NCc1ccco1	-1	.	i	-13	.	1	2	0
O=C(Nc1ccc(N2CCN(Cc3ccccc3)CC2)cc1)c1ccco1	-4	-1	i	16	-3	7	5	-7
Cc1cccc(-n2c(O)c(C=Nc3cc(O)ccc3C)c3ccccc3c2=O)n1	?	-8	i	2	-10	-1	0	-20
O=C(COc1ncnc2sccc12)NC1CCS(=O)(=O)C1 (stereo not drawn)	2	-10	i	5	-13	-3	1	6
[O-]/C(=C(\C(=S)Nc1ccccc1F)[n+]1ccccc1)c1ccc(OC(F)F)cc1	-5	-15	i	1	10	-3	2	1
Cc1cc(C)nc(SCc2nnc(SCC(=O)O)n2-c2ccccc2)n1	4	-10	i	7	-8	3	3	4
NS(=O)(=O)c1ccc(N2N=C(c3ccc(Br)cc3)CC2c2ccc(F)cc2)cc1 (stereo not drawn)	-3	-16	i	-3	125*	-5	-7	.
O=C(NCc1ccccn1)C(=O)C1C(=O)Nc2ccccc21 (stereo not drawn)	0	.	i	-10	-4	0	7	-3
Cc1c(CCOC(=O)C2C3CC4CC(C3)CC2C4)sc[n+]1CC(=O)c1ccc(Br)cc1 (stereo not drawn)	-2	-4&-25	i	-14	108*	-10&2	-11&-1	.
c1ccc(Oc2cc(-c3ccccc3)nc(-c3ccccc3)n2)cc1	-4	.	i	7	22	-1	5	.
COC(=O)Cc1ccc(OC2(C)CCN(Cc3ccccc3)C2)cc1 (stereo not drawn)	.	-2	.	.	.	-1	3	-4
COc1ccccc1NS(=O)(=O)c1c(C)[nH]c(C)c1C(=O)N1CCCC1	-10	-22	i	1	3	-1	1	1
Nc1c(Br)c(=O)[nH]c(=O)n1-c1ccccc1	-8	-10	i	-13	-16	-4	1	-2
COc1ccc(CNC(=O)Cc2cccs2)cc1	4	-11	i	0	-5	1	4	.
CCOC(=O)c1cnc(-n2nc(C)cc2C)nc1NCc1ccc2c(c1)OCO2	0	-2	i	-8	-4	-2	-2	-9
O=C1CC(NS(=O)(=O)c2ccccc2F)CN1c1ccc2c(c1)OCCO2 (stereo not drawn)	.	6	i	.	-9	1	5	-8
N#CC1=C(S)N(c2ccc(F)cc2)C2(CCCCC2)NC1=O	1	-24	i	-5	-2	-1	4	-13
O=C(N/N=C/c1ccccn1)c1ccc(N/N=C/c2ccccn2)cc1	13	.	i	-8	23	6	4	-3
O=C(Nc1cccc(C(=O)O)c1)/C(=C\c1ccccc1Cl)NC(=O)c1ccco1	7	-16	i	-2	8	2	4	-14
O=C(NCc1ccc2c(c1)OCO2)Nc1ccc2nsnc2c1	-2	.	i	-4	0	4	5	5
CC(=O)c1ccc(NC(=O)c2ccc(-n3cncn3)c([N+](=O)[O-])c2)cc1	-4	-8	i	-6	.	-1	2	.
CCN(CC(=O)NCc1ccc(F)cc1)C(=O)Cc1ccc(OC)cc1	-1	-15	i	9	5	-3	2	-4
COc1ccc(S(=O)(=O)N2CCCCCC2)cc1C(=O)N(C)CC(=O)Nc1ccc(Cl)c(Cl)c1	.	.	i	.	11	-2	-17	-13
CN1C(=O)Cc2cc(S(=O)(=O)Nc3ccc(Cl)cc3)ccc21	-8	-4	i	2	-11	1	1	-8
COc1cc(OC)c(NC(=O)CCc2nc(-c3cccs3)no2)cc1Cl	8	-18	i	1	24	-4	0	-6
CCOc1ccc2nc(NC(NC(=O)CC)(C(=O)OC)C(F)(F)F)sc2c1 (stereo not drawn)	3	6	i	-2	-3	-120	-74	-12
O=C1CC(=O)N(CCNc2ncc(C(F)(F)F)cc2Cl)C(=O)N1	?	3	i	?	-24	.	.	.

As a working copy, 2 of the compounds above.
SMILES	eIF4H inh	UUG fidelity	Rce1 inh	PABP polyA inh	CSC inhib	MT1-MMP act inh	MT1-MMP act inh RFP	HIV Env fusion	others
COc1ccc(S(=O)(=O)N2CCCCCC2)cc1C(=O)N(C)CC(=O)Nc1ccc(Cl)c(Cl)c1	.	.	i	.	11	-2	-17	-13
CN1C(=O)Cc2cc(S(=O)(=O)Nc3ccc(Cl)cc3)ccc21	-8	-4	i	2	-11	1	1	-8
